BJeLR lethal = BJeLR cell viability loss. BJeLR (HRASV12) viability, CellTiter-Glo ATP luminescence, 48 h; reference of the scale not given here. inhibition, % (test concentration not listed). hit rate 0.17% among 300,000. AID 1554;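 active means replicate mean above 50%; inconclusive means above 50% but judged a plate artefact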;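 further: 50 nL library stock added to about 25 µL; numbers are from one replicate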
PrP 5UTR inh = inhibition of PrP 5' UTR reporter expression | cell-based PrP 5' UTR mRNA reporter, plate reader | inhibition, % (no concentration beside the values) | hit rate 0.35% among 340,000;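 active means every replicate at 50% or more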;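 further: 0 = median of the neutral control wells; tested in H4 reporter cells; numbers are from one replicate; inactives centre near -14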
Mtb hypoxia inh = inhibitors of hypoxia-regulated fluorescent reporter in Mycobacterium tuberculosis; fluorescence inhibition, % (test concentration not listed); AID 1159583; hit rate 0.1% among 300,000; M. tuberculosis hypoxia-regulated fluorescent reporter, fluorescence;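 active means 35 to 45% if threefold the growth effect, above 45% if 1.5-fold the growth effect; inactive means the rest, general growth blockers included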;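 further: wells of about 50 µL received 100 nL stock; 0% = vehicle wells and 100% = reference inhibitor wells; whole bacteria with a GFP reporter of the hypoxia response; strong numbers were not always called active; many hits fall short of the cut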
Sa ugtP lethal = compounds lethal to S. aureus RN4220 ugtP deletion mutant; OD600 growth, 16 h; some inactives read as strong as hits; growth inhibition, % (no concentration beside the values); hit rate 0.54% among 330,000;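 active means z-score under -3 and OD600 up to 0.15 on both plates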;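 further: plate controls were untreated wells for no effect and antibiotic for full effect; wells of about 80 µL received 100 nL stock; the first replicate is given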
RN4220 kill = S. aureus RN4220 growth inhibition | OD600, 16 h | inhibition, % (test concentration not listed) | hit rate 0.33% among 330,000;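 active means z-score of -3 or lower and OD600 up to 0.18 on both plates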;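 further: plate controls were untreated cells for no effect and reference antibiotic for full effect; stock transfer was 100 nL into about 80 µL; one replicate is shown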
Autofluor counter = counter-screen for toxin protease inhibitors: compound fluorescence; compound autofluorescence counterscreen, microsphere flow cytometry; active compounds read high; fluorescence intensity (no concentration beside the values); hit rate 3.1% among 360,000;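 active means at least 3 SD above the mean of all compounds, about 16000 in these data; inconclusive means too few beads counted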;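 further: 100 nL of 1 mM stock went into each well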
Mtb hypoxia inh growth = also measured in Mtb hypoxia inh; calls as there; growth inhibition, %; measured here: M. tuberculosis growth (absorbance);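 0% = vehicle and 100% = reference antibiotic; read after six days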
Active calls of the source: *; ? = inconclusive; nt = no result given. Rows are unselected, and some 4% of all compounds hit somewhere here.

item	molecule	BJeLR lethal	PrP 5UTR inh	Mtb hypoxia inh	Mtb hypoxia inh growth	Sa ugtP lethal	RN4220 kill	Autofluor counter
1	O=C(COc1cccc(C(F)(F)F)c1)NNC(=O)Cc1ccc(S(=O)(=O)N2CCOCC2)s1	nt	-5	4	0	4	3.0	3623
2	O=C(CN1C(=O)CCC1=O)Nc1ccc(Br)cc1	7	-13	13	9	-29	3.5	4063
3	CCOC(=O)c1c(C)[nH]c(C(=O)N(C)Cc2cccc(OC)c2OC)c1C	-5	-12	-7	-7	-4	-3.9	3195
4	COc1ccc(S(=O)NC2CCCCC2)c(OC)c1C (configuration not stated)	0	-9	nt	nt	2	-0.1	2074
5	CON(C)c1nc(NCC(C)C)nc(OCC#N)n1	1	-1	7	9	2	2.8	8925
6	CC(=O)N(C1=C(O)c2ccccc2C(=O)C1=O)C1CCCCC1	2	-23	5	4	5	0.3	11790
7	Cc1nn(CC(=O)N2CCOCC2)c(=O)c2nn(-c3ccccc3)c(C)c12	-10	-24	0	-12	5	4.1	5287
8	COC(=O)c1c(-c2ccccc2)c(-c2ccccc2)nn(C)c1=O	0	0	5	0	15	5.5	3070
9	CCN(c1ccccc1)S(=O)(=O)c1ccc(OC)c(NC(=O)c2cccs2)c1	-25	-10	12	-5	10	8.4	3311
10	Cc1ccc(C(=O)NCCNC(=O)c2ccco2)cc1C	5	-37	6	6	13	4.5	3787
11	COCCOc1ccc(C(F)(F)F)cc1NC(=O)c1ccc(F)cc1	-5	-12	13	15	2	2.1	2871
12	CCn1cc(C2=NOC(C(=O)O)C2)c(C)n1 (configuration not stated)	-4	nt	0	1	4	2.3	9821
13	N#Cc1ccccc1NC(=O)COC(=O)COc1ccccc1[N+](=O)[O-]	-1	-36	11	3	7	7.2	4291
14	CCN(CC)S(=O)(=O)c1csc(C(=O)NCc2ccccc2)c1	10	-17	-4	-1	3	-1.9	6451
15	COc1ccc(NC(=O)c2cc3ccccc3o2)cn1	-10	-51	16	2	2	8.0	3873
16	CC(=O)Nc1ccccc1C(=O)OCc1ccc(F)cc1	-1	-41	-1	-7	2	1.4	4021
17	COc1ccccc1C(=O)NCC(=O)N/N=C(\C)Cc1ccccc1	-5	-11	nt	nt	nt	nt	6309
18	Cc1cc(NC(=O)CCC(=O)N(CC(C)C)C(C(=O)NC(C)(C)C)c2ccccc2Cl)no1 (configuration not stated)	2	-17	20	3	-2	3.7	2918
19	Cc1cccc(CCNC(=O)CCNS(=O)(=O)c2cc(Br)cnc2N)c1	3	-14	16	5	-6	4.3	5509
20	O=[N+]([O-])c1cccc(CN2CCN(Cc3ccc(Br)cc3)CC2)c1	5	-4	0	14	13	3.7	2104
21	CCOc1ccc(S(=O)(=O)Nc2nc3ccccc3nc2-n2ccc(=NC(=O)c3ccccc3C)cc2)cc1	-10	-6	6	12	0	4.8	5318
22	c1ccc2c(Nc3ccc4c(c3)OCCO4)c3c(nc2c1)CCCC3	4	-3	14	16	10	-1.9	2660
23	CCCN(CCC)C(=O)C1CCCN(S(=O)(=O)c2ccc3c(c2)oc(=O)n3C)C1 (configuration not stated)	4	-9	14	6	3	2.7	5133
24	COC(=O)c1ccn(CSc2cc(Cl)ccc2Cl)n1	nt	-16	8	0	23	-0.3	4557
25	CCOC(=O)C1CCCN(C(=O)C2CCN(C(=O)Nc3ccccc3)CC2)C1 (configuration not stated)	11	-3	9	-2	8	1.7	?
26	COc1ccc(N2CC(C(=O)Nc3ccc(S(=O)(=O)Nc4nccs4)cc3)CC2=O)cc1 (configuration not stated)	-5	-15	11	21	-2	-1.0	4380
27	CCC(=O)NC(NC(=S)Nc1c(C)n(C)n(-c2ccccc2)c1=O)C(Cl)(Cl)Cl (configuration not stated)	1	-2	-9	-10	7	-3.6	2521
28	Nc1nc(-c2ccco2)nn1C(=O)c1ccc([N+](=O)[O-])cc1	-6	3	-3	-4	0	2.5	5201
29	Cc1c(CN2CCC(n3nccc3NC(=O)C3CCOC3)CC2)[nH]c2ccccc12 (configuration not stated)	-6	4	-2	5	5	1.9	5763
30	Fc1ccc2nc(Nc3nc4c(F)cc(F)cc4s3)sc2c1	10	-31	6	0	26	32	2065

Of the compounds above, these contain a thiophene ring, fused or not:
item	molecule	BJeLR lethal	PrP 5UTR inh	Mtb hypoxia inh	Mtb hypoxia inh growth	Sa ugtP lethal	RN4220 kill	Autofluor counter
1	O=C(COc1cccc(C(F)(F)F)c1)NNC(=O)Cc1ccc(S(=O)(=O)N2CCOCC2)s1	nt	-5	4	0	4	3.0	3623
9	CCN(c1ccccc1)S(=O)(=O)c1ccc(OC)c(NC(=O)c2cccs2)c1	-25	-10	12	-5	10	8.4	3311
14	CCN(CC)S(=O)(=O)c1csc(C(=O)NCc2ccccc2)c1	10	-17	-4	-1	3	-1.9	6451

Next part.
item	molecule	BJeLR lethal	PrP 5UTR inh	Mtb hypoxia inh	Mtb hypoxia inh growth	Sa ugtP lethal	RN4220 kill	Autofluor counter
31	O=C(CSc1c2c(nc3cc(Cl)ccc13)CCCC2)NCCN1CCOCC1	4	-10	16	15	5	9.2	2259
32	Cc1cc(O)c(/C=N/c2ccccn2)c(=O)o1	7	-17	nt	nt	nt	nt	3172
33	CS(=O)(=O)N(CC(=O)NCCSCc1ccco1)c1ccc(Cl)cc1	12	-10	10	6	8	3.8	4308
34	CCOc1ccc2nc(Cl)c(C3CC(c4ccccc4)=NN3C(=O)c3ccco3)cc2c1 (configuration not stated)	-12	nt	-1	1	-1	4.6	nt
35	CCOc1ccc2[nH]c(=O)c(CN(Cc3cccs3)Cc3nnnn3C(C)(C)C)cc2c1	1	-11	4	9	-11	7.1	11124
36	O=C(NNC(=O)c1ccccc1[N+](=O)[O-])c1csc(N2CCOCC2)n1	-7	-27	8	3	3	4.3	14784
37	O=C(O)CC(NS(=O)(=O)c1ccc2c(c1)OCCO2)c1ccccc1[N+](=O)[O-] (configuration not stated)	nt	-22	4	1	-1	6.1	3742
38	CCOc1ccc(/C=N/NC(=O)c2ccccc2NC(=O)c2ccc(OC)cc2)cc1	-1	-49	nt	nt	nt	nt	1968
39	O=C(Nc1ccccc1)C(=O)Nc1ccccn1	10	-16	12	5	-2	4.6	13054
40	CC(=O)c1cccc(NC(=O)N2CCCC2C(=O)Nc2cc(C)ccc2C)c1 (configuration not stated)	4	-14	nt	nt	-2	3.2	4280
41	CCc1c(C(=O)Nc2ccccc2)c(C)[nH]c(=S)c1C#N	5	-20	1	0	-5	-4.6	9311
42	Cc1ccccc1-c1noc(-c2ccccc2F)n1	2	nt	3	1	9	12	10404
43	CCOc1ccccc1Oc1c(C)oc2cc(OC(=O)c3ccco3)ccc2c1=O	-10	-30	-1	9	-1	3.4	7619
44	COc1cccc(NC(=S)NNC(=O)C(C)n2nc(C)c([N+](=O)[O-])c2C)c1 (configuration not stated)	-13	nt	5	0	-1	3.3	7335
45	COc1ccc(C(=O)Nc2ccccc2C(=O)NCc2ccco2)cc1OC	2	-19	-16	17	-13	-1.8	?
46	Cn1c(SCc2nc(-c3ccc(Cl)cc3)no2)nnc1-c1cccs1	0	-9	6	12	4	6.5	15475
47	CCS(=O)(=O)N1CCCC(C(=O)NCCc2ccc(C)cc2)C1 (configuration not stated)	-3	-11	6	0	0	4.6	9619
48	COc1ccccc1C1NC(c2ccccc2OC)C(C)C(=O)C1C (configuration not stated)	1	-15	11	3	10	4.1	8276
49	CCOc1ccc(N(CC(=O)NC2CC3CCC2C3)S(=O)(=O)c2ccc(C)cc2)cc1 (configuration not stated)	11	-12	1	-6	9	0.8	?
50	CC1(C)Cc2c(c(-c3ccco3)nc3n[nH]c(N)c23)CO1	-7	-10	-1	3	1	1.5	2530
51	COC(=O)c1ccc(C)c(NC(=O)CCSc2ccc(Cl)cc2)c1	-4	0	-2	1	-2	4.4	3598
52	COc1ccc(CC(=O)Nc2nc(-c3cccnc3)cs2)cc1	2	-3	3	-4	11	-2.3	2573
53	Cc1ccc(CN2CCN(Cc3cn(C(C)C)c4ccccc34)CC2CCO)o1 (configuration not stated)	5	-7	7	-1	1	3.7	3816
54	COCCCN(C(=S)Nc1cccc(Cl)c1)C(C)c1ccncc1 (configuration not stated)	2	-16	6	7	13	3.8	2013
55	COc1ccc(NC(=O)CCc2nc3ccccc3[nH]2)cc1	8	-6	2	0	-2	1.9	5431
56	CN(C)Cc1c(C(=O)N/N=C/c2ccc(-c3ccccc3)cc2)nnn1-c1nonc1N	3	-14	nt	nt	nt	nt	4792
57	CC(=O)Nc1ccc(NC(=O)C(C)OC(=O)C2CCCCC2)cc1 (configuration not stated)	nt	-9	6	1	6	2.8	4714
58	COCCCN(C(=O)c1ccc(N2CCCC2=O)cc1)c1c(N)n(Cc2ccccc2)c(=O)[nH]c1=O	2	-11	0	-7	2	3.1	5769
59	c1ccc2c(c1)CC1(CCCC1)N=C2N1CCOCC1	15	-26	12	5	9	1.5	5108
60	Cc1cccc(-n2c(SCC(=O)N3CC(=O)Nc4ccccc43)nc3ccccc3c2=O)c1	-5	-8	5	-2	-83	-1.7	4396

Entries of single compounds from above.
Results for COC(=O)c1ccn(CSc2cc(Cl)ccc2Cl)n1 : BJeLR lethal: nt; PrP 5UTR inh: -16; Mtb hypoxia inh: 8; Mtb hypoxia inh growth: 0; Sa ugtP lethal: 23; RN4220 kill: -0.3; Autofluor counter: 4557
Results for CCOc1ccc(N(CC(=O)NC2CC3CCC2C3)S(=O)(=O)c2ccc(C)cc2)cc1 (configuration not stated) : BJeLR lethal: 11; PrP 5UTR inh: -12; Mtb hypoxia inh: 1; Mtb hypoxia inh growth: -6; Sa ugtP lethal: 9; RN4220 kill: 0.8; Autofluor counter: ?

Only Sa ugtP lethal and BJeLR lethal, for two of the compounds above:
cpd	Structure	Sa ugtP lethal	BJeLR lethal
51	COC(=O)c1ccc(C)c(NC(=O)CCSc2ccc(Cl)cc2)c1	-2	-4
52	COc1ccc(CC(=O)Nc2nc(-c3cccnc3)cs2)cc1	11	2

Next part:
item	molecule	BJeLR lethal	PrP 5UTR inh	Mtb hypoxia inh	Mtb hypoxia inh growth	Sa ugtP lethal	RN4220 kill	Autofluor counter
61	CC1CN(C(=O)Cn2c(C(F)(F)F)nc3ccccc32)CC(C)O1 (configuration not stated)	-1	-9	nt	nt	4	1.5	3889
62	COCC(C)N1C(=O)Cc2c1nc(N)c1c(N)nc(N3CCN(c4ccccc4F)CC3)c(C#N)c21 (configuration not stated)	2	-24	-1	5	2	3.2	2577
63	O=C(NN=Cc1ccccc1C(=O)O)C(=O)N1CCCCC1	nt	nt	-4	8	1	19	nt
64	O=C(/C=C/c1cnc2ccccc2n1)NC12CC3CC(CC(C3)C1)C2	5	28	2	10	-5	-0.3	7747

Ordered by molecular weight (rising): 3 of the compounds above.
item	molecule	BJeLR lethal	PrP 5UTR inh	Mtb hypoxia inh	Mtb hypoxia inh growth	Sa ugtP lethal	RN4220 kill	Autofluor counter
59	c1ccc2c(c1)CC1(CCCC1)N=C2N1CCOCC1	15	-26	12	5	9	1.5	5108
63	O=C(NN=Cc1ccccc1C(=O)O)C(=O)N1CCCCC1	nt	nt	-4	8	1	19	nt
60	Cc1cccc(-n2c(SCC(=O)N3CC(=O)Nc4ccccc43)nc3ccccc3c2=O)c1	-5	-8	5	-2	-83	-1.7	4396

Compound activity: PubChem BioAssay, several laboratories
